miR-21 reporter: qHTS Assay for Modulators of miRNAs and/orActivators of miR-21. Potency, µM (top dose mostly 38.3 µM), without a hit: top-dose reporter change, positive = more light. HeLa miR-21 FLuc reporter, luciferase, 48 h. 340,000 tested, under 10 active; active = well fitted rising curve with a large enough effect; inconclusive = small, poorly fitted or top-dose-only effect; inactive = no such curve, though single readings can be large or run the other way;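 note: % of control where 0% means no effect; miR-21 action dims this reporter so a rising signal means less miR-21 action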
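Luminescence from a firefly luciferase reporter carrying a miR-21 binding site downstream, stably expressed under a CMV promoter in HeLa cells that make miR-21 endogenously, reports miRNA modulation after 48 h compound exposure up to approximately 40uM final.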
Numbers without * were called inactive.

What do the screens show for `CCc1ccc(NC(=O)C2CCCN(S(=O)(=O)c3c(C)noc3/C=C/N(C)C)C2)cc1` (stereo not drawn)?
miR-21 reporter: 7%

What do the screens show for `CC(C)c1ccc(NS(=O)(=O)c2ccc3[nH]cc(C(=O)NC4CCCC4)c(=O)c3c2)cc1`?
miR-21 reporter: 4%

What do the screens show for `CN(C)C(=O)c1ccc(S(=O)(=O)NCc2ccc(Cl)cc2)s1`?
miR-21 reporter: 1%

What do the screens show for `CCOc1ccc(NC(=O)c2oc3ccccc3c2NC(=O)Cc2ccc(F)cc2)cc1`?
miR-21 reporter: -2%

Results for CCCc1cnc2c(c1SCC(=O)Nc1ccccc1OCC)c(=O)n(C)c(=O)n2C ?
miR-21 reporter: 0%

What do the screens show for `O=C(CN1C(=O)C2(SCC(=O)N2c2ccc(F)c(F)c2)c2ccccc21)Nc1ccccc1F` (stereo not drawn)?
miR-21 reporter: 2%

How did CCOc1ccccc1C(=O)N(Cc1cc(OC)c(OC)c(OC)c1)c1ccccn1 do in these assays?
miR-21 reporter: 8%

Results for Cc1ccc(C)c(S(=O)(=O)c2nnn3c2nc(N2CCCC2)c2sccc23)c1 ?
miR-21 reporter: -13%

What do the screens show for `Cc1cccc2c1-c1sc(C(=O)Nc3ccccc3C(N)=O)cc1CO2`?
miR-21 reporter: -64%

How did CCOc1ccccc1C(=O)NCC(c1cccs1)S(=O)(=O)c1ccc(F)c(C)c1 (stereo not drawn) do in these assays?
miR-21 reporter: 12%

What do the screens show for `Cc1ccc(NC(=O)CCCn2c(=O)c3cccn3c3ccccc32)c(C)c1`?
miR-21 reporter: -4%

Results for N#Cc1c[nH]n2c(NC3CCCC3)c(-c3cccc(Br)c3)nc12 ?
miR-21 reporter: inconclusive

How did O=C(NCCS(=O)(=O)N1CCN(c2ccc(F)cc2)CC1)C(c1ccccc1)c1ccccc1 do in these assays?
miR-21 reporter: -2%

Results for Cc1c(Cl)cccc1NC(=O)CCCn1nc(C)c2sc3ccccc3c2c1=O ?
miR-21 reporter: -13%

What do the screens show for `CCOc1ccc(C(=O)N2CCCCC2CCN2CCOCC2)cc1` (stereo not drawn)?
miR-21 reporter: 1%

What do the screens show for `Cc1c(C(=O)Nc2ccc(-c3nc4cc(Cl)ccc4o3)cc2)oc2ccccc12`?
miR-21 reporter: -3%

What do the screens show for `Cn1cc(S(=O)(=O)N2CCCCCC2)cc1C(=O)NCc1ccc(F)cc1`?
miR-21 reporter: 0%

Results for COc1ccc(NC(=O)Cn2cc(C(=O)c3ccccc3)c(=O)c3cc(OC)ccc32)c(OC)c1 ?
miR-21 reporter: 9%

What do the screens show for `COc1cccc(CNS(=O)(=O)c2c(C(=O)N3CCC(C)CC3)c(C)n(C)c2C)c1`?
miR-21 reporter: 3%

Results for CCOc1ccc(S(=O)(=O)NCCc2sc3nc(-c4ccc(C)cc4)nn3c2C)cc1 ?
miR-21 reporter: 25%

What do the screens show for `Cc1ccc2c(c1)N(C(=O)N1CCC(C(=O)NCc3ccco3)CC1)CC(C)O2` (stereo not drawn)?
miR-21 reporter: 1%

Results for COc1cccc(CNC(=O)CCc2c(C)c3ccc(O)c(C)c3oc2=O)c1 ?
miR-21 reporter: -9%

How did Cc1cccc(N(CC(=O)Nc2ccc(Br)cc2)S(C)(=O)=O)c1C do in these assays?
miR-21 reporter: 23%

How did Cc1cc(C)cc(C(=O)Nc2cc(C(F)(F)F)ccc2N2CCN(c3ccccc3)CC2)c1 do in these assays?
miR-21 reporter: -9%

What do the screens show for `CCCSC1=NC2(CCN(C(=O)NC3CCCCC3)CC2)N=C1c1ccccc1`?
miR-21 reporter: -1%

What do the screens show for `Cc1cc(C)cc(NC(=O)CSc2nc3ncccc3[nH]2)c1`?
miR-21 reporter: -11%

How did CCc1nnc(NC(=O)c2nc(SC)ncc2Cl)s1 do in these assays?
miR-21 reporter: -2%

Results for COc1ccc(N2CCN(C(=O)CCc3c(C)nc4cc(-c5cccc(F)c5)nn4c3C)CC2)cc1 ?
miR-21 reporter: 27%

Results for COc1ccc(S(=O)(=O)Nc2cccc(-c3ccc(N4CCCC4)nn3)c2)cc1OC ?
miR-21 reporter: 10%

How did O=C(NCC(c1cccnc1)N1CCc2ccccc21)c1cccc(C(F)(F)F)c1 (stereo not drawn) do in these assays?
miR-21 reporter: 4%

What do the screens show for `Cc1ccc(-c2noc(-c3nnn(-c4ccc(Br)cc4F)c3C)n2)cc1`?
miR-21 reporter: -11%

How did CCOc1ccccc1NC(=O)c1nn(C)c2c1CSc1ccccc1-2 do in these assays?
miR-21 reporter: 21%

Results for O=C(Nc1ccc(Cl)c(Cl)c1)c1cc(S(=O)(=O)N2CCN(c3cccc(Cl)c3)CC2)ccc1F ?
miR-21 reporter: inconclusive

Results for O=C(Cn1cc2c(n1)CCCC2)Nc1cc(C(F)(F)F)ccc1Cl ?
miR-21 reporter: -7%

Results for Cc1ccc(Nc2c(-c3cccnc3)nc3ccc(C)cn23)cc1 ?
miR-21 reporter: -2%

Results for CCCCOc1ccc(Cn2c(=O)oc3ccc(C)cc32)cc1 ?
miR-21 reporter: -9%

Copied from the results shown for reference:
How did Cc1cccc(N(CC(=O)Nc2ccc(Br)cc2)S(C)(=O)=O)c1C do in these assays?
miR-21 reporter: 23%

How did Cc1cc(C)cc(C(=O)Nc2cc(C(F)(F)F)ccc2N2CCN(c3ccccc3)CC2)c1 do in these assays?
miR-21 reporter: -9%

What do the screens show for `CCCSC1=NC2(CCN(C(=O)NC3CCCCC3)CC2)N=C1c1ccccc1`?
miR-21 reporter: -1%

What do the screens show for `Cc1cc(C)cc(NC(=O)CSc2nc3ncccc3[nH]2)c1`?
miR-21 reporter: -11%

Entries listed so far that have an aryl thioether with sulfur outside any ring, in the order listed:
Results for CCCc1cnc2c(c1SCC(=O)Nc1ccccc1OCC)c(=O)n(C)c(=O)n2C ?
miR-21 reporter: 0%

What do the screens show for `Cc1cc(C)cc(NC(=O)CSc2nc3ncccc3[nH]2)c1`?
miR-21 reporter: -11%

How did CCc1nnc(NC(=O)c2nc(SC)ncc2Cl)s1 do in these assays?
miR-21 reporter: -2%

New compounds follow:
How did Cc1ccc(CNC(=O)CSCc2nc(-c3ccc(Cl)cc3)oc2C)cc1 do in these assays?
miR-21 reporter: -4%

Results for CCOc1ccccc1NC(=O)c1cc2ccc3cccnc3c2[nH]1 ?
miR-21 reporter: -7%

Results for COc1ccc(NC(=O)Cn2c(=O)cc(C)c3c(C)nn(C)c32)cc1 ?
miR-21 reporter: 6%

Results for CCc1ccccc1NC(=O)c1ccc2nc(CCc3ccccc3)oc2c1 ?
miR-21 reporter: -20%

What do the screens show for `Cc1cc(C)cc(NC(=O)CN(C)S(=O)(=O)c2ccc3[nH]c4c(c3c2)CCCC4)c1`?
miR-21 reporter: 18%

Results for COc1ccc(C2C(C(=O)Nc3ccc(C)cc3C)=C(C)Nc3nc(SC)nn32)cc1OC (stereo not drawn) ?
miR-21 reporter: -5%

What do the screens show for `COc1cccc(NC(=O)NCc2ccc3c(c2)CCN3C(=O)c2ccccc2)c1`?
miR-21 reporter: 14%

Results for CCOc1ccc(Sc2cc(C(=O)NCCc3ccccc3)c3ccccc3n2)cc1 ?
miR-21 reporter: 2%

What do the screens show for `CCOC(=O)CN(Cc1ccccc1)C(C(=O)NC1CCCCC1)c1ccc(OC)cc1` (stereo not drawn)?
miR-21 reporter: inconclusive

Results for Cc1ccc(Cl)cc1N1CCN(c2ncnc3c2nc2n3CCCC2)CC1 ?
miR-21 reporter: 1%

How did CCCCNC(=O)CN1CCN(c2ccc(NC(=O)c3ccc(OC)cc3)cc2C(=O)O)CC1 do in these assays?
miR-21 reporter: 1%

Results for COc1ccc(/C=C(\C#N)c2nc(-c3cc4c(ccc5ccccc54)oc3=O)cs2)cc1O ?
miR-21 reporter: -11%

What do the screens show for `O=C(CSc1oc(-c2ccc(F)cc2)nc1S(=O)(=O)c1ccccc1)NC1CCCCC1`?
miR-21 reporter: -4%

What do the screens show for `CCCSc1nc(-c2ccc(OC)cc2)cc(-c2ccccc2OC)c1C#N`?
miR-21 reporter: 2%

How did CCOc1ccc(NCc2nc3ccccc3n2CCOc2ccc(C)cc2)cc1 do in these assays?
miR-21 reporter: 11%

Results for CCCC(=O)N(c1ccc2oc3c(c2c1)CCCC3)S(=O)(=O)c1ccc(CC)cc1 ?
miR-21 reporter: 1%

How did CN1CCc2nc3sc(C(=O)Nc4ccccc4C(F)(F)F)c(N)c3cc2C1 do in these assays?
miR-21 reporter: 16%

What do the screens show for `O=C(Cn1c(SCc2ccccc2F)nc2ccncc21)Nc1ccccc1C(F)(F)F`?
miR-21 reporter: -26%

How did COc1ccc(OC)c(NC2=C(c3ccccc3)C(=O)c3ccccc32)c1 do in these assays?
miR-21 reporter: 26%

What do the screens show for `CCOc1ccc(CC(=O)Nc2c(C(=O)c3ccc(C)cc3)oc3ccccc23)cc1OCC`?
miR-21 reporter: -5%

What do the screens show for `Cc1cc(CN2CCN(c3cccc(C)c3C)CC2)cs1`?
miR-21 reporter: 10%

Results for CCc1ccccc1NC(=O)c1cn(C)c(=O)c2ccccc12 ?
miR-21 reporter: 5%

Results for O=C(Cn1ncc2c3ccccc3n(Cc3ccc(Cl)cc3)c2c1=O)NCCC1=CCCCC1 ?
miR-21 reporter: -6%

How did Cc1ccc(Cl)cc1NC(=O)N1CCC2(CC1)Oc1ccccc1C(=O)N2Cc1ccccc1F do in these assays?
miR-21 reporter: -7%

How did COc1ccccc1CNc1ccc(-c2nc(-c3ccco3)no2)cc1[N+](=O)[O-] do in these assays?
miR-21 reporter: -10%

How did O=C(COc1ccccc1)Nc1ccc(C(=O)OCc2cc(=O)n3nc(C4CC4)sc3n2)cc1 do in these assays?
miR-21 reporter: 0%

What do the screens show for `Cc1nc(SCC(=O)Nc2ccccc2C)cc(-c2ccccc2)n1`?
miR-21 reporter: 2%

Results for CS(=O)(=O)N(CC(=O)NCCSCc1ccccc1)c1cc(C(F)(F)F)ccc1Cl ?
miR-21 reporter: inconclusive

Results for Fc1ccc(Nc2c(-c3ccccn3)nc3ccc(Cl)cn23)cc1 ?
miR-21 reporter: 1%

Results for Cc1c(C(=O)OCCOc2ccccc2)[nH]c2c1C(=O)CC(c1ccccc1)C2 (stereo not drawn) ?
miR-21 reporter: 29%

How did CCOC(=O)c1c(NC(=O)c2cc(-c3cccc(OC)c3)on2)sc2c1CCCC2 do in these assays?
miR-21 reporter: -5%

What do the screens show for `Cc1cc(-c2ccc(S(=O)(=O)Nc3ccc(Br)c(C)c3)s2)on1`?
miR-21 reporter: 16%

What do the screens show for `CCn1cc(C(=O)NCCN(CC(C)C)CC(C)C)c(=O)c2cc(S(=O)(=O)N(C)C3CCCCC3)ccc21`?
miR-21 reporter: -5%

How did COc1ccc(-c2nc(CCNC(=O)c3cc(OC)c(OC)c(OC)c3)cs2)cc1 do in these assays?
miR-21 reporter: 20%

How did Cc1ccc(Cl)cc1N(C)C(=O)c1cnc(N2CCOCC2)c2ccccc12 do in these assays?
miR-21 reporter: 4%

How did CC(=O)N1CCCc2cc(S(=O)(=O)N(C)CC(=O)Nc3cccc(Cl)c3C)ccc21 do in these assays?
miR-21 reporter: 12%

How did CCOC(=O)c1ccc(NC(=O)NCCOCCn2c(=O)oc3ccccc32)cc1 do in these assays?
miR-21 reporter: 19%

Results for Cc1cccc(NC(=O)CSc2ncc(-c3ccccc3)[nH]2)c1C ?
miR-21 reporter: -50%

How did Cc1ccc(-c2nnc3ccccc3c2C(=O)Nc2ccc(F)cc2)cc1 do in these assays?
miR-21 reporter: -65%

How did CSc1ncc(C(=O)Nc2ccccc2C(=O)c2ccccc2)c(C(F)(F)F)n1 do in these assays?
miR-21 reporter: 0%

What do the screens show for `Cc1cc(C)cc(NC(=O)CN2C(=O)COc3ccc(S(=O)(=O)Nc4ccccc4)cc32)c1`?
miR-21 reporter: -3%

What do the screens show for `O=S(=O)(c1ccccc1)n1nc(-c2ccco2)nc1NCc1ccccc1`?
miR-21 reporter: -34%

What do the screens show for `CCc1ccc(NC(=O)CC2C(=O)N(c3ccc(C)cc3)C(=O)N2C2CCCC2)cc1` (stereo not drawn)?
miR-21 reporter: 4%

How did Cc1ccc(C(=O)n2nc(C)c(S(=O)(=O)N3CCOCC3)c2C)cc1 do in these assays?
miR-21 reporter: -1%

How did COc1ccc(NC(=O)CN2C(=O)C(C)(C)c3ccccc32)cc1Cl do in these assays?
miR-21 reporter: 14%

How did COc1cc(C(=O)NCC(c2ccc3c(c2)OCO3)N2CCOCC2)cc(OC)c1OC (stereo not drawn) do in these assays?
miR-21 reporter: -3%

How did CCCCOc1ccc(C(=O)N(Cc2ccc(C(C)C)cc2)C2CCS(=O)(=O)C2)cc1 (stereo not drawn) do in these assays?
miR-21 reporter: 9%

Results for O=C(NCc1ccccc1)c1cc2sccc2n1Cc1ccc(F)cc1 ?
miR-21 reporter: 6%

How did O=S(=O)(Nc1cccc(-c2ccc(N3CCOCC3)nn2)c1)c1cc(C(F)(F)F)ccc1Cl do in these assays?
miR-21 reporter: -38%

What do the screens show for `COc1ccc(OC)c(CNC(=O)CN2C(=O)CCn3nc(-c4cn(C)c5ccccc45)cc32)c1`?
miR-21 reporter: 3%

How did O=S(=O)(NCCc1csc2nc(-c3ccc(Cl)cc3)nn12)c1ccc2c(c1)OCCO2 do in these assays?
miR-21 reporter: 7%

What do the screens show for `CCCCNC(=O)CC1Nc2cc(C)c(C)cc2NC1=O` (stereo not drawn)?
miR-21 reporter: 1%

Bioassay records as filed in PubChem BioAssay.

Only part of the results is shown; the hit share may differ from the screen's.
